LANA-H2B inh: blocks KSHV LANA binding to histone H2A/H2B | 0.6% of 320,000 active | cell-free LANA-H2A/H2B peptide, fluorescence polarization | Q9QR71 | inhibition, % (concentration not given with the values); in the data active = inhibition mostly above about 10%, no sharp cut-off; inactive = mostly below about 6.7%;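 also: stock transfer was 7.5 nL into about 10 µL; 0% = median of vehicle wells and 100% = median of positive control wells; one replicate is shown; the record names a cut of 25% in any replicate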
Target sequence (Q9QR71 whole entry, looked up): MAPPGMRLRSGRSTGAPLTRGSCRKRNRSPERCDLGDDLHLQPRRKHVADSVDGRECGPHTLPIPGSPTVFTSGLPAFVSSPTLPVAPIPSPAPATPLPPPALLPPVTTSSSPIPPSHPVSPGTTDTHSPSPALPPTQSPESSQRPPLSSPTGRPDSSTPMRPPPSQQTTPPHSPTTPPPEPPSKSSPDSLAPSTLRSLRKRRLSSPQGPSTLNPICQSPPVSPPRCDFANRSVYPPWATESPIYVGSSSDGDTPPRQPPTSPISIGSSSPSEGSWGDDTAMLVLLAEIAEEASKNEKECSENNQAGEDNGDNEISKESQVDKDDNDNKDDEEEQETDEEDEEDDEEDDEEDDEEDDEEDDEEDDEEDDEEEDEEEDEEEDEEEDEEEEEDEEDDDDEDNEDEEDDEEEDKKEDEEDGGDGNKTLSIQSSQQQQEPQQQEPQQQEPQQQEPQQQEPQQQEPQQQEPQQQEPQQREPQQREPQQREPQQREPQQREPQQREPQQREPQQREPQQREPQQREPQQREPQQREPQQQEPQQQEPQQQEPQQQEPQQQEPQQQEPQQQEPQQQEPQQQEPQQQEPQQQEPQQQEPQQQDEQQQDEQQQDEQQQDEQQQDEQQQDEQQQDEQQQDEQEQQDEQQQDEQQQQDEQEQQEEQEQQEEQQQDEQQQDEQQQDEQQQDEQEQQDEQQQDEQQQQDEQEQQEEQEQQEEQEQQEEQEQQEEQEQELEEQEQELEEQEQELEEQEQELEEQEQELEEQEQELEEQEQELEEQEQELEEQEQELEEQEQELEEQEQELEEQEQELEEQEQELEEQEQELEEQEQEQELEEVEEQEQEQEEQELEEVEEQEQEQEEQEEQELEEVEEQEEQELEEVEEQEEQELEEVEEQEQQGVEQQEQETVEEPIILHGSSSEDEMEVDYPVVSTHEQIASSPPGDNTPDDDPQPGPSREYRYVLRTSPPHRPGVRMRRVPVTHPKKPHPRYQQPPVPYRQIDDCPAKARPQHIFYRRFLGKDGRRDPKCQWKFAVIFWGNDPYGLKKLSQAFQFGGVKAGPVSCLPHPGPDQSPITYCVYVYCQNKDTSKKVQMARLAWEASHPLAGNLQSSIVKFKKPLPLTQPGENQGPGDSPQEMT
B2AR ag: agonists of human beta-2 adrenergic receptor inducing internalization. 0.43% of 340,000 active. response, % (concentration not given with the values). P07550. Am2.2-beta2AR cells, FAP receptor internalization, flow cytometry; reference of the scale not given here;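 active = response above a set limit, near 3 SD of response in nonfluorescent compounds, cut at about 42% in these data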;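 also: stock transfer was 100 nL into about 11 µL; a reference agonist was the positive control; negative values mostly stem from fluorescent compounds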
E coli growth: inhibitors of Escherichia coli growth. OD600, 23 h; active compounds read low. 0.21% of 330,000 active. OD600 absorbance (no concentration beside the values). AID 1053175;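 active = OD600 absorbance below the run mean of sample wells minus 3.6 SD, in any replicate, cut at about 0.56 in these data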;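 also: stock transfer was 300 nL into about 60 µL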
HNF4A DNA FP: change in binding of human HNF4 alpha to DNA; P41235; activity change, % at 10 µM; HNF4a-FITC DNA binding, fluorescence polarization, 1 h; 0.3% of 360,000 active; AID 1224865; in the data active = activity change above about 30%, passing the limit was not always enough;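 also: controls were the assay level and a saturating level of protein; the project sought stronger binding though the title names inhibitors; some compounds called inactive have numbers as strong as hits; positive values seem to mean higher polarization but the record does not say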
ALR inh: inhibitors of human sulfhydryl oxidase ALR. purified ALR, DTT oxidation, H2O2 HRP-luminol luminescence. inhibition, % (test concentration not listed). P55789. 3.8% of 290,000 active;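 active = mean and each replicate at 75% or more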;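 also: stock transfer was 7.5 nL into about 7.5 µL; 0% = neutral wells and 100% = wells with inactivated enzyme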
UCH37 inh: inhibitors of human deubiquitinating enzyme UCH37 | purified proteasome/UCH37, Ub-AMC cleavage fluorescence | Q9Y5K5 | inhibition, % (no concentration beside the values) | 0.33% of 330,000 active | AID 588478;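 active = mean of two replicates above 20%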;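 also: 0% = compound-free wells with enzyme and 100% = wells lacking proteasome; stock transfer was 100 nL into about 20 µL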
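Material: human UCH37 enzyme supplied as purified proteasome complex / Amount: 0.15 nM proteasome as dispensed / Buffer or medium: pH 7.4 Tris-HCl (50 mM) with ovalbumin, ATP-MgCl2, DTT / Times: preincubation 30 min, reaction 25 min, room temperature / Technique: AMC fluorescence from Ub-AMC cleavage, excitation 355 nm, emission 460 nm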
FGF22 binding: FGF22 (human) thermal shift binding; Q9HCT0; recombinant FGF22 thermal shift, SYPRO orange fluorescence; percent of sucrose octasulfate shift, DMSO zero; calls only at 9.99 µM; 1.5% of 340,000 active;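 active = melting point raised past a set limit in the mean and every replicate; three in four hits are not shown here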
* hit, by the source's call; i = inactive; . = not tested or not shown. Only part of the results is shown (hit frequency here may not be typical).

SMILES	LANA-H2B inh	B2AR ag	E coli growth	HNF4A DNA FP	ALR inh	UCH37 inh	FGF22 binding
CC(=O)n1nc(-c2ccncc2)nc1SCC(=O)Nc1cccc(Cl)c1	-6.5	4.4	.	3.9	.	.	i
COc1ccc(NC(=O)c2cc3ccccc3cc2OC)cc1	-2.2	20.0	0.596	2.6	-0.3	1.9	.
Cc1ccc(OCCCCn2ccnc2C)c(C)c1	-2.9	2.7	0.669	-2.1	.	4.6	i
O=C(NC1CCS(=O)(=O)C1)/C(=C/c1ccc(Cl)cc1)NC(=O)c1ccccc1 (stereo unspecified)	-4.6	6.3	.	5.2	-2.8	3.2	i
CC(=O)c1cccc(N/C=C\c2nnnn2-c2ccc(F)cc2)c1	-1.9	-4.1	0.672	7.5	.	-93.7	.
CN(C)CCC(=O)N1c2ccccc2Sc2ccc(Cl)cc21	-1.5	-10.6	0.648	-6.6	10.3	6.1	i
O=C(N/N=C/c1ccccc1Br)c1ccc(CSc2cccc3cccnc23)cc1	4.1	-1.7	.	-1.4	-7.0	.	.
O=C(Nc1ccc([N+](=O)[O-])cc1)Nc1nc(-c2ccc(Cl)s2)cs1	-10.9	11.1	0.625	-0.6	-32.1	2.2	i
Cc1ccc(NC(=O)CCn2ccc([N+](=O)[O-])n2)nc1	-4.5	-7.6	0.703	0.7	-17.1	6.1	i
Cc1cccc(C(=O)N2CCCC(CCC(=O)N3CCN(c4ccccn4)CC3)C2)c1 (stereo unspecified)	-7.4	-9.3	0.722	-0.9	4.1	-1.2	i
COc1cccc(-n2c(SCC(=O)O)nnc2-c2cccnc2)c1	0.5	-3.3	0.691	1.7	-8.5	4.1	i
Cc1cc(C)cc(OCC(O)CN2CCN(Cc3ccc4c(c3)OCO4)CC2)c1 (stereo unspecified)	0.2	-3.3	0.712	-1.8	2.4	6.3	i
[N-]=[N+]=CC(=O)CCCN1C(=O)c2ccccc2C1=O	2.9	-7.8	0.66	-1.2	2.9	1.8	.
COc1ccc2nc(N3C(=O)CNC3=S)sc2c1	-5.6	1.7	.	3.1	.	.	i
O=[N+]([O-])c1cc(C(F)(F)F)ccc1NC1CCN(Cc2ccccc2)C1 (stereo unspecified)	4.1	2.2	0.684	6.0	-1.0	0.2	i
c1csc(C2=NNC(=NC3CCCCC3)SC2)c1	3.3	-9.2	0.665	1.1	-8.6	4.4	i
NC1=NC(c2cccc(Cl)c2)N(CCc2ccc(F)cc2)C(N)=N1 (stereo unspecified)	1.7	0.3	0.619	-2.7	1.2	3.5	i
Cc1cc(C(=O)COC(=O)CNS(=O)(=O)c2ccc3ccccc3c2)c(C)n1-c1ccccc1	-4.4	46.9*	0.712	-0.3	21.8	4.4	.
CC(=O)Nc1cccc(N2CCCC2=O)c1	3.4	-1.6	0.743	6.6	99.5*	0.4	i
COc1cc(/C=C2/C(=O)NN(c3cccc(Cl)c3)C2=O)cc(OC)c1O	2.2	-44.2	.	-0.7	91.0*	.	.
CC(C)Oc1ccc(C2CCC(=O)NC2=O)cc1 (stereo unspecified)	2.9	-2.5	0.719	-2.4	-11.4	-0.3	i
CCn1c(SCC(=O)NCC(=O)Nc2ccc(F)cc2)nnc1-c1cccs1	-0.4	-16.8	0.674	0.6	2.5	-0.8	.
O=C(CCN1C(=O)C2C3C=CC(C4CC34)C2C1=O)Oc1cccc2cccnc12 (stereo unspecified)	9.8	-11.3	0.608	-3.1	-27.5	4.2	.
Cc1cc(C)c(NS(=O)(=O)c2ccc(NC(=O)CCC(=O)O)cc2)c(C)c1	4.6	-1.9	0.698	2.9	1.3	-1.6	i
CCN1C(=O)CC(N2CCN(c3ccc(C(=O)c4ccccc4)cc3)CC2)C1=O (stereo unspecified)	6.6	-1.2	0.758	2.1	.	8.5	.

(continued)
SMILES	LANA-H2B inh	B2AR ag	E coli growth	HNF4A DNA FP	ALR inh	UCH37 inh	FGF22 binding
CN(Cc1ccccc1)S(=O)(=O)c1ccc(Cl)c(C(=O)N2CCC(C(N)=O)CC2)c1	0.1	-2.1	0.678	-1.5	-15.0	0.7	i
COC(=O)c1ccc2c(=O)n(CC3CCCO3)c(SCC(=O)Nc3ccc(OC)cc3OC)nc2c1 (stereo unspecified)	5.1	-1.0	0.706	-4.2	-5.4	3.2	i
O=C(O)C1CC=CCC1C(=O)N1CCc2ccccc21 (stereo unspecified)	1.0	12.2	0.721	-0.7	-11.2	2.6	.
Cc1noc(C)c1S(=O)(=O)NCCc1ccc(S(N)(=O)=O)cc1	6.2	2.2	0.732	3.3	-3.5	-0.2	.
Cc1ccc(-c2nnn(CC(=O)N(CC(=O)NCc3ccccc3)c3cccc(C)c3C)n2)o1	-3.0	-16.6	0.741	1.7	-1.4	3.1	.
CCCc1nc(SCc2ccc(OCC)cc2)n[nH]1	1.4	3.5	0.701	1.6	.	4.5	i
Cc1ccccc1OCc1nc(-c2ccc(NC(=O)c3cccs3)cc2)no1	-2.9	-6.5	0.68	1.4	4.3	-8.4	.
Cc1cc(NC(=O)COC(=O)COc2ccc(Cl)cc2C)c([N+](=O)[O-])cc1C	18.3*	-6.7	.	1.7	89.5*	.	.
CCN(CC)c1ccc(NC(=O)COc2ccc(N(C)S(=O)(=O)c3cccs3)cc2)cc1	-1.4	3.9	0.698	3.2	31.8	7.7	i
Cc1n[nH]c(=O)nc1NC1CCCCC1	3.0	6.6	0.683	3.1	-6.4	1.6	.
Cc1cc(C(C#N)c2ccccc2F)n2ncnc2n1 (stereo unspecified)	-4.3	6.7	0.678	0.3	91.6*	9.4	i
CC(C)(C)c1ccc(C(=O)N/C(=C\c2cccc([N+](=O)[O-])c2)C(=O)Nc2cccc(C(=O)O)c2)cc1	-6.4	-5.7	0.672	0.7	1.2	3.5	i
Cc1ccc(C)c(S(=O)(=O)N2CCCC2CNC(=O)C(=O)NC2CC2)c1 (stereo unspecified)	4.4	1.8	0.624	-0.7	-9.2	0.7	i
CNC(=S)N/N=C/c1cn(CCOc2ccc(OC)cc2)c2ccccc12	-2.4	2.4	.	1.0	-20.5	.	.
COc1cccc(-c2ncc3ccccc3c2COC(=O)c2ccc(C(C)(C)C)cc2)c1	1.0	-3.8	0.716	1.1	-7.9	-0.6	i
COc1ccc(/C=C/C(=O)NC(=S)Nc2ccc(S(=O)(=O)Nc3ccc(OC)nn3)cc2)cc1	0.0	0.6	0.629	-1.2	4.1	1.3	.
Cc1ccccc1N1CCN(C(=S)c2ccc(-c3ccc([N+](=O)[O-])cc3)o2)CC1	6.4	-2.6	0.714	2.1	.	7.4	i
Cc1c(C(=O)N2CCN(c3ccccc3)CC2)sc2ncnc(N3CCN(c4ccccn4)CC3)c12	-2.1	7.0	.	-1.0	0.7	.	i
CCOc1ccccc1NC(=O)COC(=O)C(Cc1ccccc1)NC(=O)c1ccco1 (stereo unspecified)	3.7	5.2	0.703	-1.7	3.2	-1.7	i
O=S(=O)(Nc1ccon1)c1ccc(Br)s1	4.4	3.9	0.7	39.1*	-5.4	1.0	.
C/C(=N\N=C1\NC(=O)C(CC(=O)Nc2ccc(Cl)cc2)S1)c1ccco1 (stereo unspecified)	-12.0	-13.8	.	-0.4	14.4	.	i
CCOC(=O)CSc1nc2cc(S(=O)(=O)N3CCOCC3)ccc2n1CC	0.0	6.4	0.642	-1.1	0.7	4.5	.
CCCCN(C)CCNC(=O)CN1C(=O)CSc2ccc(S(=O)(=O)N3CCOCC3)cc21	-0.9	-4.5	0.681	-0.2	-4.7	-0.7	i
Cc1ccc(S(=O)(=O)C2(C(=O)N3CCN(c4cc(C)ccc4C)CC3)CC2)cc1	1.4	4.0	0.682	-0.7	-0.2	4.3	i
COc1ccc(NS(=O)(=O)c2cc(NC(=O)c3ccc(=O)[nH]c3)ccc2N2CCOCC2)cc1	-0.6	1.6	0.644	3.6	2.1	5.7	.

Among those listed so far, two have a tert-butyl group:
SMILES	LANA-H2B inh	B2AR ag	E coli growth	HNF4A DNA FP	ALR inh	UCH37 inh	FGF22 binding
CC(C)(C)c1ccc(C(=O)N/C(=C\c2cccc([N+](=O)[O-])c2)C(=O)Nc2cccc(C(=O)O)c2)cc1	-6.4	-5.7	0.672	0.7	1.2	3.5	i
COc1cccc(-c2ncc3ccccc3c2COC(=O)c2ccc(C(C)(C)C)cc2)c1	1.0	-3.8	0.716	1.1	-7.9	-0.6	i

(continued)
SMILES	LANA-H2B inh	B2AR ag	E coli growth	HNF4A DNA FP	ALR inh	UCH37 inh	FGF22 binding
COC(=O)[C@@H](NCc1cccc(CN[C@H](C(=O)OC)c2ccccc2)c1)c1ccccc1	-3.1	-1.4	.	-0.3	1.3	3.3	i
CCOC(=O)C1C(C(=O)OC)=C(c2ccc(OC)cc2)c2ccccc2N1S(=O)(=O)C(F)(F)F (stereo unspecified)	.	-3.6	0.712	-0.7	.	-1.2	i
O=C(NC1CCCC1)C(c1ccncc1)N(C(=O)c1csnn1)c1cccc(F)c1 (stereo unspecified)	1.3	2.2	0.66	1.9	-2.2	3.8	i
N[C@@H](Cc1ccccc1)c1nnc(SCc2ccccc2F)o1	-3.7	3.3	0.714	5.3	-12.6	0.5	.
COc1ccc(-n2c(CN3CCN(C)CC3)nc3ccc([N+](=O)[O-])cc3c2=O)c(OC)c1	-0.9	-9.4	0.686	0.3	-15.8	-0.4	i
COc1ccc(CSCC(=O)N/N=C/c2ccc(OCC(=O)N3CCCCC3)cc2)cc1	0.9	8.8	.	0.2	-0.9	.	i
CCOc1ccc(S(=O)(=O)N2CCC(C(=O)NCc3ccccn3)CC2)cc1Cl	3.9	-6.3	0.659	-0.2	-1.5	0.3	i
NC(=O)CSc1nnc(-c2ccc([N+](=O)[O-])cc2)o1	-5.3	1.7	.	-4.1	-11.4	.	i
O=C(Nc1ccncc1)Nc1ccncc1	-8.7	2.2	0.679	-1.6	.	0.7	i
O=C(NCc1nc(-c2ccccc2)no1)c1ccc(Br)o1	1.6	-4.3	0.662	6.0	-0.3	2.3	.
O=C(O)c1ccccc1OCc1ccccc1Br	-2.2	2.0	0.647	2.0	-15.2	2.0	i
O=C(Nc1cc(S(=O)(=O)N2CCOCC2)ccc1Cl)c1cc2ccccc2o1	-15.2	-1.4	0.692	-0.8	.	-2.7	i
COC(=O)c1ccc([C@H](NC(=O)c2ccco2)[C@]2(C)C[C@H]2C2CCCCC2)cc1	-6.2	14.4	.	1.4	-6.4	-3.1	i
CC(C)OCC1Cn2c(nc3c2c(=O)n(C)c(=O)n3C)O1 (stereo unspecified)	-0.6	3.1	0.674	-0.4	-0.7	-2.8	i
O=C(NCCOC(=O)c1ccccc1)c1ccc([N+](=O)[O-])cc1	2.4	1.9	0.697	1.3	-5.1	-0.3	i
COc1ccc(CCNC(=O)CC2SC(=NCCc3ccccc3)NC2=O)cc1 (stereo unspecified)	-0.4	-3.2	0.724	3.4	-27.2	1.2	.
Cc1cccc(/C=N/NC(=O)C(C)Nc2cccc3ccccc23)n1 (stereo unspecified)	-1.8	-0.5	.	-69.9	63.1	.	.
O=C(c1nc2ccccn2c1CN1CCN(c2ccccc2O)CC1)N1CCCC1	3.9	-2.0	0.668	1.1	98.9*	-4.9	i
O=C(COc1ccccc1)Nc1nnc(-c2ccc(Cl)s2)o1	-4.1	6.1	0.633	1.1	.	-22.9	i
Cc1c(C(=O)O)oc2c1C(O)CCC2 (stereo unspecified)	-0.8	2.3	0.712	1.4	-15.8	5.6	.
Cc1ccc(C(C)C)c(OCC(=O)Nc2ccc(N3CCOCC3)cc2N2CCOCC2)c1	.	11.2	0.691	-1.4	.	3.5	i
CCCc1ccc(Oc2cn[nH]c2-c2ccc(O)c(C)c2O)cc1	1.5	2.9	0.651	1.7	46.6	10.6	.
CCCCNC(=O)C1CCC(=O)N1CCc1ccccc1 (stereo unspecified)	1.0	-7.1	0.689	1.6	.	4.1	i
S=C(S)OC1CC2CC1C1CCCC21 (stereo unspecified)	.	-0.7	.	4.7	.	.	i
COc1ccc(-c2nnc(C)c3nocc23)cc1	0.1	-1.9	0.688	56.4*	-14.2	4.5	i
O=S(=O)(c1ccccc1)N1C2CCC1CC(O)(c1cccnc1)C2 (stereo unspecified)	0.2	2.9	0.743	0.3	-11.5	-0.9	.
